Source: PubChem BioAssay (National Center for Advancing Translational Sciences (NCATS))
TRPML1 inh = qHTS for Inhibitors of the Human Mucolipin Transient Receptor Potential 1 (TRPML1). TRPML1-inducible cells, Ca2+ dye fluorescence, FDSS; active compounds read low; inhibition of EC80 agonist-evoked calcium signal. activity change, negative = inhibition, % (concentration not given with the values). 390,000 compounds, 0.02% hits. AID 624415, 2012; in the data active means activity change below about -50%; inconclusive means about -30% to -50%; inactive means above about -30%;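 further: stimulus is agonist 54-4 at its EC80 concentration; on the % scale 0 is the no-effect control and ±100 the full control effect; the text of the record puts the active cut at -80%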
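Tet-induced TRPML1-DL cells loaded with Ca8 no-wash calcium dye were read kinetically on FDSS. Compound addition was followed by EC80 agonist 54-4 (4 uM final); inhibition was read over 110 s.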
PINK1 modulator = A Quantitative High throughput Screen to Identify Chemical Modulators of PINK1 Expression. 410,000 compounds, 0.2% hits. AID 624263, 2012. PINK1 immunofluorescence, high-content cytometry, 24 h. Potency, µM (top dose mostly 76.6 µM), for inactives: at the top dose activation (PINK1 increase), most hits filed as activators; active = well fitted activation curve with a large enough effect; inconclusive = small, poorly fitted or top-dose-only effect; inactive = flat fitted curve, though single readings scatter; cell line not stated here;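 further: potency means the concentration at half of the fitted maximal effect; % of control where 0% means no effect; nearly all actives have a fitted effect of over 65% in size; a mitochondrial uncoupler was the plate control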
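PINK1 protein level read as immunofluorescence by microplate cytometer in a fixed, stained stable cell line after 24 h exposure to five compound concentrations, with CCCP as control.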
ClpP mod = qHTS Assay for Activators of ClpP. Potency, µM (series often up to 57.5 µM), without a hit: at the highest dose activity change, negative = active. purified B. subtilis ClpP, FRET peptide cleavage, 20 min. ATP-dependent Clp protease proteolytic subunit (Bacillus subtilis (strain 168)), P80244. 340,000 compounds, 1.9% hits. AID 651965, 2013; active = well fitted falling curve with a large enough effect; inconclusive = small, poorly fitted or top-dose-only effect; inactive = no such curve, though single readings can be large or run the other way; further: potency means the concentration at half of the fitted maximal effect; the source files actives as falling curves though it sought activators and does not explain the sign; nearly all actives have a fitted effect of over 65% in size; many hits overshoot -100%
Target sequence (P80244 whole entry, looked up): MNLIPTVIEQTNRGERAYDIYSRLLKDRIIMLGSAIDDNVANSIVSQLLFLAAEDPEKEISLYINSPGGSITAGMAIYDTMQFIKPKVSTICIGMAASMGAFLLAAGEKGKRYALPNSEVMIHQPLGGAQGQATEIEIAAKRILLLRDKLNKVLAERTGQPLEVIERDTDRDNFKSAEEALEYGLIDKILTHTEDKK
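FRET quenching reversal measured ClpP activation: 10 microg/mL B. subtilis ClpP at pH 8 with the FRET-FV decapeptide, read at 430 nm after 320 nm excitation. The 20-min minus 0-min signal was scaled between DMSO/no-enzyme wells and ADEP (5.8 microM final).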
Menin MLL FP FL = qHTS Assay for Inhibitors Targeting the Menin-MLL Interaction in MLL Related Leukemias: Competition With Fluorescein Labeled MLL-derived Peptide | FP activity change, % at 61.4 µM | AID 1766, 2009 | 290,000 tested, under 10 active | Fluorescence polarization, fluorescein-MLL peptide displacement from menin; inconclusive = falling polarisation curve, or a change in total fluorescence; inactive = total fluorescence flat and polarisation flat or rising; no compound was filed as active; the % refers to the polarisation; negative = inhibition;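 further: % of control where 0% means no effect; inhibitors lower the polarisation; unlabelled MLL peptide was the positive control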
TRPML1 ag = qHTS for Agonists of the Human Mucolipin Transient Receptor Potential 1 (TRPML1). Mucolipin-1 (Homo sapiens), Q9GZU1. TRPML1-expressing cells, Ca2+ dye fluorescence, FDSS; host cell line not named in the record; reference of the full effect not given here. activation, % (no concentration beside the values). 410,000 compounds, 0.12% hits. AID 624414, 2012; in the data active = activation above about 50%; inconclusive = about 30% to 50%; inactive = below about 30%; further: 0% is about no effect; the text of the record puts the active cut at 80%
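Tetracycline-induced TRPML1-DL cells are seeded and incubated overnight before loading with a no-wash Ca2+ dye and quencher. Agonist activity is taken from the 110 s fluorescence read following compound pin-transfer on an FDSS, before EC80 54-4 challenge.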
Sfp inh = qHTS Assay for Inhibitors of Bacillus subtilis Sfp phosphopantetheinyl transferase (PPTase); 4'-phosphopantetheinyl transferase ffp (Bacillus subtilis), Q9F4F7; Biochemical Sfp PPTase activity, qHTS; Potency, µM, without a hit: max response, negative = inhibition, hits mostly inhibitors; 310,000 compounds, 3.5% hits; AID 1490, 2009; active means well fitted inhibition curve with a large enough effect; inconclusive means small, poorly fitted or top-dose-only effect, or another doubt; inactive means no such curve, though single readings can be large or run the other way;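 further: the enzyme is Sfp with the accession as filed and its product quenches rhodamine fluorescence; potency means the concentration at half of the fitted maximal effect; 0% = enzyme reaction without inhibitor and -100% = no enzyme wells; top concentration of the series not given in the record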
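Step 1, compound plus 15 nM Sfp-PPTase, 15 min, room temperature. Step 2, add rhodamine-CoA (5 uM) and BHQ-2-YbbR (12.5 uM). Step 3, read 525/598 nm fluorescence at 0 and 30 min.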
TRPV1 potentiator = HTS Assay for Compounds that Act as Potentiators of the Vanilloid Receptor 1; Transient receptor potential cation channel subfamily V member 1 (Homo sapiens), Q8NER1; TRPV1-expressing cells, Fluo-8 calcium influx, capsaicin EC20 potentiation; host cell line not named in the record; control for the full effect not named in the record; potentiation, % at 8.33 µM; 320,000 compounds, 0.02% hits; active means potentiation above 80%; inconclusive means 30% to 80%; inactive means below 30%; further: 0% is about no effect
Target sequence (Q8NER1 whole entry, looked up): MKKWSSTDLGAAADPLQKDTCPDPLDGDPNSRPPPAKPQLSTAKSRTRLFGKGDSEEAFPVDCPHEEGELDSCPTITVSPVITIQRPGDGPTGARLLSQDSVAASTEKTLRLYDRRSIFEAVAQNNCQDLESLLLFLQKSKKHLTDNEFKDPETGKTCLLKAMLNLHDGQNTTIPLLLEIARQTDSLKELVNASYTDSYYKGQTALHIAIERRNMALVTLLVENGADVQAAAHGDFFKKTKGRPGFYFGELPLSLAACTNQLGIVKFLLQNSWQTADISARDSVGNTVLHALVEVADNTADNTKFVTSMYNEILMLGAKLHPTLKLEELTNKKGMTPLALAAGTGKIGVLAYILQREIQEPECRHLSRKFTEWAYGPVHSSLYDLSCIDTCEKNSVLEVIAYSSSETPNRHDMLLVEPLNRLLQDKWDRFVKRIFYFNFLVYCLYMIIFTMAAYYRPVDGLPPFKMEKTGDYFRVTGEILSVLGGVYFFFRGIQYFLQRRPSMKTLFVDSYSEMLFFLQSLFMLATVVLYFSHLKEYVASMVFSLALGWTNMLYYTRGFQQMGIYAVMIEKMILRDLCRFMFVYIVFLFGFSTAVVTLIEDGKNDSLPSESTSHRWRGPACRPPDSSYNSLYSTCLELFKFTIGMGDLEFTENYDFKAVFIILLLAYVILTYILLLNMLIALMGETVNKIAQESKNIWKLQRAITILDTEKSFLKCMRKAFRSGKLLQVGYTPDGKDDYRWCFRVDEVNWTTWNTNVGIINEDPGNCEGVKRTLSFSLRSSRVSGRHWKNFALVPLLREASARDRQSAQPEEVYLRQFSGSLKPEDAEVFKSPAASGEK
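Fluo-8 calcium influx in TRPV1-expressing cells, kinetic read (ex 480/em 520 nm). Compound added and read 3 min for agonist activity, followed by capsaicin at EC20 final and 2 min further read for enhancement.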
* marks the source's active call; other numbers are inactive results; u = inconclusive; x = not tested or not shown; & = joins results of further samples; [ ] = another dose, or the depositor's remark.

Structure	TRPML1 inh	PINK1 modulator	ClpP mod	Menin MLL FP FL	TRPML1 ag	Sfp inh	TRPV1 potentiator
CCCC(C(=O)Nc1ccc(S(=O)(=O)Nc2ncccn2)cc1)c1ccccc1 (configuration not stated)	0	-1.5%	-4.3%	x	-0.2	6%	u
COc1ccccc1NC(=O)c1ccc(NC(=O)CN2CCN(C(=O)c3ccco3)CC2)cc1	-22	-0.8%	-3.2%	-6.2	3.7	7%	13
CC(C)N1CC(COc2ccc(Br)cc2)OC1=O (configuration not stated)	2	0.5%	-2.1%	0.0	1.9	-4%	14
Cc1c(Cl)cccc1NC(=O)CN1C(=O)c2ccccc2Sc2ncccc21	-7	2.1%	-1.0%	x	0.2	x	x
CC(=O)N1c2ccc(S(=O)(=O)NCC3CCC(C(=O)Nc4cc(C)cc(C)c4)CC3)cc2CC1C (configuration not stated)	33	1.8%	1.0%	x	1.4	x	x
CCN(CC)CCOC(=O)c1ccc(NC(=O)c2cc3cccc(OC)c3oc2=O)cc1	26	1.4%	2.2%	x	-0.6	x	x
COc1ccccc1NS(=O)(=O)c1ccc(Cl)cc1	0	8.5%[38.3 µM]	-1.5%	2.6	0.4	15%	-4
Cc1nc(C(C)(C)O)n(-c2ccccc2)n1	-2	-0.2%	0.6%	1.7	0.6	13%	4
O=C(C[n+]1ccccc1)N/N=C/c1ccc(C(=O)O)cc1	-12	0.6%	-1.0%	x	2.1	x	-4
CCOc1ccccc1NC(=O)Cn1c(=O)n(-c2ccc(C)c(C)c2)c(=O)c2oc3ccccc3c21	1	3.1%	1.1%	x	-0.7	x	x
Fc1ccc(-c2ccc(CNCc3ccccn3)o2)cc1	6	0.6%	-1.1%	-9.4	0.0	-2%	-1
O=C(CN1CCCCCC1)Nc1ccccc1[N+](=O)[O-]	2	0.2%	-2.0%	4.8	0.1	15%	14
COc1cc(CC(=O)OCC(=O)Nc2cc([N+](=O)[O-])ccc2Cl)cc(OC)c1OC	13	-2.2%	2.5%	-3.2	1.1	9%	7
CCNC(=O)C1(C)CCN(C(=O)c2cccs2)C1 (configuration not stated)	x	0.6%	-0.1%	x	-0.3	x	x
COc1ccc(C2CC(c3ccc(C)cc3)=NN2C(=O)c2ccccc2)cc1 (configuration not stated)	2	2.3%	-21%	4.5	1.5	-24%	19
CCOC(=O)c1ccc(NNC(C)=O)c([N+](=O)[O-])c1	-15	3.6%	x	-1.1	0.2	0%	1
Cc1cccc(C)c1NC(=O)Cn1nc(-c2ccccc2)nc1-c1ccccc1	7	5.5%[38.3 µM]	0.5%	-4.6	-0.6	u	-3
CCC(=O)NCCCOc1ccccc1	-7	0.7%[38.3 µM]	1.2%	-0.1	-0.1	6%	3
O=C(c1cccc(Br)c1)c1conc1C(=O)c1ccco1	-1	-0.8%	0.3%	1.2	0.9	21%	-12
Cn1ccc(C(=O)N/N=C/c2ccccc2[N+](=O)[O-])n1	-7	0.4%	0.8%	-1.2	-0.3	u	-10
CCN(CC)CCOC(=O)c1ccc(NC(=O)c2cc3cc(OC)ccc3oc2=O)cc1	5	2.3%	-9.1%	x	-0.4	x	x
COc1ccc(-c2csc(C(C)(O)c3cccc(F)c3)n2)cc1OC (configuration not stated)	x	2.8%	-1.1%	x	-0.2	x	x
O=C(OCCN=C1NS(=O)(=O)c2ccccc21)c1cccnc1	-19	1.3%	1.1%	2.2	-0.1	16%	-5
O=C(COc1ccc(F)cc1)N(Cc1cccc(Br)c1)C1CCS(=O)(=O)C1 (configuration not stated)	-10	0.2%	0.0%	x	-1.0	14%	13
CCn1c(SCC(=O)Nc2cccc(O)c2)nc2c1c(=O)n(C)c(=O)n2C	18	9.1%	x	-3.8	-0.2	-14%	6
COc1ccccc1N1CCN(C(=O)CSc2n[nH]c(-c3ccccc3Cl)n2)CC1	-5	0.7%	-2.4%	x	0.4	x	x
CCOC(=O)/C(=N\Nc1ccc(Cl)cc1)c1csc(Nc2ccccc2)n1	-2	3.2%	13%	4.7	-0.3	-1%	5
Cc1nnc(SCC(=O)Nc2ccc(Cl)cn2)[nH]c1=O	9	0.7%	1.7%	4.4	0.8	15%	1
CC1CCN(C(=O)/C=C/c2ccc(C(C)(C)C)cc2)CC1	-11	30%	0.7%	2.3	2.7	-11%	-11
COc1ccccc1CNC(=O)c1c(-c2ccccc2)nn(-c2ccccc2)c1C	-17	-0.7%	-3.2%	2.1	7.0	6%	-8
CN1C(=O)C(C)(C)c2cc(S(=O)(=O)NCc3ccc(C(=O)NCc4ccco4)cc3)ccc21	0	7.0%	-0.5%	-0.7	-0.9	26%	20
Cc1ccc(NC(=O)CC2Sc3ccccc3NC2=O)c(C)c1 (configuration not stated)	-6	19%	0.5%	x	0.2	x	x
CSc1ccccc1NC(=O)COC(=O)Cc1ccsc1	-2	1.9%	1.7%	x	0.2	x	x
Brc1cccc(CNc2nc3ccccc3n2CCN2CCOCC2)c1	5	0.4%	x	0.5	-0.3	-16%	0
COC(=O)[C@@]1(C)[C@H]2C(=O)N(Cc3ccccc3)C(=O)[C@H]2[C@H]2CN=C(SC)N21	4	-1.0%	-14%	x	0.4	x	x
S=C(NCc1ccncc1)Nc1ccc(Br)cc1Cl	-1	0.7%	-0.2%	x	-0.4	0%	-7
O=C(Nc1cccc(F)c1)NC1CC2CCCC(C1)N2C1CC1 (configuration not stated)	5	3.2%	-0.6%	-4.1	-0.3	16%	u
Nc1nc2ccc(OC(F)(F)F)cc2s1	7	x	-0.1%	3.1	0.0	14%&6%&-21%&-2%&-5%	-4&-3
Nc1c(C(=O)N2CCCCC2)sc(=S)n1-c1ccccc1	4	-4.8%[38.3 µM]	-0.9%	-0.3	0.3	-84%	12
Cc1cc2n(c1)CCn1c(C)ccc1-2	x	x	x	u	x	u	2

Complete entries as entered above. Values in the order: TRPML1 inh, PINK1 modulator, ClpP mod, Menin MLL FP FL, TRPML1 ag, Sfp inh, TRPV1 potentiator
O=C(Nc1cccc(F)c1)NC1CC2CCCC(C1)N2C1CC1 (configuration not stated) is listed as 5, 3.2%, -0.6%, -4.1, -0.3, 16%, u
CCC(=O)NCCCOc1ccccc1 is listed as -7, 0.7%[38.3 µM], 1.2%, -0.1, -0.1, 6%, 3
Cc1c(Cl)cccc1NC(=O)CN1C(=O)c2ccccc2Sc2ncccc21 is listed as -7, 2.1%, -1.0%, x, 0.2, x, x
CCNC(=O)C1(C)CCN(C(=O)c2cccs2)C1 (configuration not stated) is listed as x, 0.6%, -0.1%, x, -0.3, x, x

Further compounds follow.
Structure	TRPML1 inh	PINK1 modulator	ClpP mod	Menin MLL FP FL	TRPML1 ag	Sfp inh	TRPV1 potentiator
O=C(CC1CCCC1)N1CCN(S(=O)(=O)c2ccccc2)CC1	-8	-0.4%	0.0%	x	-0.2	x	1
COc1ccc(OC)c(NC(=O)C2CCCN(S(=O)(=O)c3cccc4nsnc34)C2)c1 (configuration not stated)	-11	-0.8%	-3.5%	0.1	-1.3	-7%	9
CC(OC(=O)c1cc2c(ccc3ccccc32)oc1=O)c1nc2ccccc2s1 (configuration not stated)	7	-1.8%	2.8µM*	-2.4	0.7	4%	-2
CCN(CC)CCNC(=O)c1c(C)n(-c2ccccc2)c2cc(Br)c(OC)cc12	0	0.1%	-0.8%	-0.9	0.2	u	-18
COc1ccc(C(=O)C2CCCN(Cc3ccc4nonc4c3)C2)cc1OC (configuration not stated)	7	1.2%	-1.1%	5.2	1.2	-5%	-8
COc1ccc(C(C(=O)NC2CCCC2)N(C(=O)c2snc(-c3ccc(F)cc3)c2N)c2ccccc2)cc1 (configuration not stated)	-1	13µM*	-0.8%	-1.1	0.1	10%	-40
CCOc1ccc(N(C)S(=O)(=O)c2c[nH]c(C(=O)OC)c2)cc1	6	1.5%	-0.9%	-1.5	-0.9	11%	-1
Cc1cccc(C2CC(c3ccccc3)Nc3ncnn32)c1 (configuration not stated)	7	0.7%	0.2%	2.1	0.9	14%	x
O=C(Cn1nnc(-c2ccccc2NC(=O)C2CC2)n1)NC1CCCCC1	35	-2.2%[38.3 µM]	-2.5%	3.1	-0.4	11%	-4
CC(=O)C1C(c2cccc(Oc3ccccc3)c2)NC(=O)NC1(O)C(F)(F)F (configuration not stated)	1	3.0%	0.4%	0.4	-0.4	9%	-3
CCO[C@@H]1OC(C(=O)NCc2ccccc2)=C[C@H](C)[C@H]1CCCO	-5	0.4%	0.5%	-0.8	-0.6	12%	8
CCC(C(=O)Nc1cc(C)nn1-c1nc(C)cc(C)n1)c1ccccc1 (configuration not stated)	-7	-0.7%	-3.5%	-0.1	-1.2	u	-15
CNC(=O)C12CCC(C)(c3nc4cc(C)c(C)cc4nc31)C2(C)C (configuration not stated)	-4	4.5%[38.3 µM]	-6.4%	3.8	-0.8	6%	4
